HSD17B inh – qHTS Assay for Inhibitors of HSD17B4, hydroxysteroid (17-beta) dehydrogenase 4; 3-hydroxyacyl-CoA dehydrogenase type-2 (Homo sapiens), Q99714; recombinant HSD17B10, NADH fluorescence kinetic; many of its hits are not listed in these tables; Potency, µM (series often up to 57.1 µM), for inactives: top-dose activity change, negative = inhibition, usual class: inhibitors; 75,000 tested, 7.6% active; AID 893, 2007; active = well fitted inhibition curve with a large enough effect; inconclusive = small, poorly fitted or top-dose-only effect; inactive = no such curve, though single readings can be large or run the other way;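 also: the protocol describes HADH2 (HSD17B10) and not the HSD17B4 of the title; nearly all actives have a fitted effect of over 70% in size; most hits overshoot -100% by far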
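20 nM HADH2, pH 9.0 Tris/Tween; cpd preinc 15 min RT; start w/ 1 mM NAD+ + 90 uM b-hydroxybutyryl-CoA; kinetic fluor ex360/em450 q30s x 4 min; delta last-first.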
The depositor's hits bear a star; ? = inconclusive; [ ] = another dose, or the depositor's remark. % is scaled to controls: 0 for no effect and ±100 for the full control effect; potency is read from the fitted curve at half-maximal effect. Some of the compounds tested; count on the stated rates, not on these rows.

molecule	HSD17B inh
COC(=O)C(C)Sc1ccc2nnc(-c3cccc(F)c3)n2n1 (stereo unspecified)	25µM*
CCCC(=O)NCCc1cc2c(C)ccc(C)c2[nH]c1=O	?
Cc1ccc(C)c(-n2c(N)c(C(N)=O)sc2=S)c1	-15%
CCn1cc(CNC(=O)C2C3CCC(C3)C2C(=O)O)cn1 (stereo unspecified)	1%
CN(C)CC(C)(C)CN1c2ccccc2Sc2ccccc21	4%[11.4 µM]
Cc1ccc2cc(CN(CCN3CCOCC3)Cc3nnnn3Cc3ccco3)c(=O)[nH]c2c1C	?
Cc1ccc2c(c1)-c1cc(C)nn1C(c1sccc1C)N2 (stereo unspecified)	32µM*
CCCC(=O)N1CCN(C2=NS(=O)(=O)c3ccccc32)CC1	3%
CS(=O)(=O)N(CC(=O)N1CCN(c2ccccc2F)CC1)c1cc(C(F)(F)F)ccc1Cl	-5%
CC1(CC(=O)O)SC(=O)NC1=O (stereo unspecified)	-5%
CCN(CCCCN1C(=O)c2ccccc2C1=O)c1ccc2c(c1)C(=O)N(C)C2=O	-3%
Nc1nnc(SCCOc2ccccc2)s1	3%
Cc1ccc(-n2c(SCC(=O)NCc3ccco3)nc3sc(C)c(C)c3c2=O)cc1	-22%
O=c1c(-c2ccc(F)cc2)nc2cnc(Oc3ccccc3)nc2n1Cc1cccs1	25µM*
CCCCCSc1nnc2c(n1)OC(c1cccn1C)N(C(C)=O)c1ccccc1-2 (stereo unspecified)	-14%

(continued)
molecule	HSD17B inh
CCN(Cc1ccccc1)C(=O)CCCOc1ccccc1	?
NCCCCCCN	0%
Cn1cccc1Cc1nnc(SCC(=O)N2CCCCCC2)n1CCc1ccccc1	14%
CC12CCC(C(=O)N3CCN(Cc4ccccc4)CC3)(OC1=O)C2(C)C (stereo unspecified)	-6%
O=C(NCc1ccco1)c1cnccn1	-6%
CN(C)c1ccc(-c2nc(N(C)C)c3ccccc3n2)cc1	-2%
COc1ccc(Cl)cc1NC(=O)CSc1nc(N2CCCCC2)nc(N2CCCCC2)n1	-3%
Cc1c(C(=O)Nc2ccc3oc(-c4cccnc4)nc3c2)oc2ccccc12	13µM*
CC(C)=CCC/C(C)=C/C=C/C1=CC2(C)CC1(C)C(/C=C(\C)CCC=C(C)C)CC2=O (stereo unspecified)	-4%[11.4 µM]
CCN(CC)C(=O)CSc1nc2ccccc2c(=O)[nH]1	-1%
COc1ccc2nc(CC(C)(C)CC(=O)O)c[n+]([O-])c2c1	25µM*
C/C(=N/O)[C@@H]1C[C@H](CC(=O)O)C1(C)C	7%[11.4 µM]
CN(Cc1cccs1)C(=O)CCc1ccc(S(=O)(=O)N2CCOCC2)cc1	-1%
CCCCCn1c(NCc2ccco2)nc2ccccc21	-3%
Cc1cc(=O)[nH]c(SCC2(O)C3CC4CC(C3)CC2C4)n1 (stereo unspecified)	12%

2 neighbouring compounds already listed:
molecule	HSD17B inh
COC(=O)C(C)Sc1ccc2nnc(-c3cccc(F)c3)n2n1 (stereo unspecified)	25µM*
CCCC(=O)NCCc1cc2c(C)ccc(C)c2[nH]c1=O	?

(next part)
molecule	HSD17B inh
CCC(C)NC(=O)c1cn(CC)c2ccc(S(=O)(=O)N(C)C)cc2c1=O (stereo unspecified)	-4%
CC(=O)OCC1OC(C#CCCc2ccccc2)C=CC1OC(C)=O (stereo unspecified)	-1%[11.4 µM]
COC(=O)C1=C(C)NC(=O)CC1c1cccc(Cl)c1Cl (stereo unspecified)	5%
CN1CCN(C(=O)c2c(NC(=O)c3ccco3)sc3c2CCC(C(C)(C)C)C3)CC1 (stereo unspecified)	-2%
C=CC(=C)CCC=C(C)C	-4%
c1ccc(Cn2nnnc2CN2CCCC2)cc1	11%
COc1ccc(C(=O)Nc2cccc(C)c2)cc1S(=O)(=O)N1CCOCC1	5%
COc1ccc(CC(=O)Nc2ccc(-c3nnc(-c4ccc(C)cc4)o3)cc2)cc1	2.5µM*
Cc1ccc(OCCNS(=O)(=O)c2cccs2)cc1	3%
CCOc1ccc(C(=O)NC2CCN(S(=O)(=O)CC)CC2)cc1	11%
COC(=O)c1c(NC(=O)C2CCC2)sc(C(=O)N(C)C)c1C	-11%
COCCCn1c(SCC(=O)Nc2ccc(C(=O)OC)cc2)nc2ccccc2c1=O	0%
COc1cc(O)c(C(C)=O)c(OC)c1	3%
COc1ccccc1-n1c(-c2cccnc2)n[nH]c1=S	2%
Cc1nn(-c2ccccc2)c(C)c1NS(=O)(=O)c1ccccc1	0%

The list goes on, overlapping the part above by 5 compounds.
molecule	HSD17B inh
COC(=O)c1c(NC(=O)C2CCC2)sc(C(=O)N(C)C)c1C	-11%
COCCCn1c(SCC(=O)Nc2ccc(C(=O)OC)cc2)nc2ccccc2c1=O	0%
COc1cc(O)c(C(C)=O)c(OC)c1	3%
COc1ccccc1-n1c(-c2cccnc2)n[nH]c1=S	2%
Cc1nn(-c2ccccc2)c(C)c1NS(=O)(=O)c1ccccc1	0%
Cc1ccccc1NC(=O)C1CCCN(S(=O)(=O)c2cccc3cccnc23)C1 (stereo unspecified)	-1%
O=S(=O)(c1ccc(Cl)cc1)N1CCSC1c1ccco1 (stereo unspecified)	-9%
CCOC(=O)c1cccc(NC(=O)C2CCCN2S(=O)(=O)c2cccc3cccnc23)c1 (stereo unspecified)	-6%
C=CCN1C(=O)C(O)(CC(=O)c2ccccc2)c2ccccc21 (stereo unspecified)	3%
COc1ccc(-c2nc(C#N)c(NCc3ccc(F)cc3)o2)cc1OC	32µM*
CC(C)(C)NC(=O)C(c1ccco1)N(C(=O)c1csnn1)c1ccccc1 (stereo unspecified)	5%
O=C(COC(=O)CN1C(=O)c2ccccc2C1=O)Nc1ncc(Cl)cc1Cl	-5%
CCOc1ccccc1NC(=O)COc1cccc(-n2cnnn2)c1	5%
COCCNc1ncncc1-c1c(C)noc1C	1%
COc1ccc(C(=O)NCCn2cc(SCC(=O)NCc3ccco3)c3ccccc32)cc1	-10%
FC(F)(F)c1ccccc1-c1nc(N2CCOCC2)c2ccccc2n1	-5%
CCCCn1c(SCc2ccc(C(=O)OC)o2)nc2cc(S(N)(=O)=O)ccc21	9%
CCOC(=O)C1CCCN(Cc2cc(OC)c(O)c(OC)c2)C1 (stereo unspecified)	5%
COCCCn1c(=O)c2ccccc2c2ccccc2c1=O	9%
CCNc1nc(SC(C(C)=O)C(C)=O)nc(N(C)C)n1	-3%

Retrieved by compound from above, 7 records:
molecule	HSD17B inh
CC(C)(C)NC(=O)C(c1ccco1)N(C(=O)c1csnn1)c1ccccc1 (stereo unspecified)	5%
CCOc1ccccc1NC(=O)COc1cccc(-n2cnnn2)c1	5%
CCOC(=O)C1CCCN(Cc2cc(OC)c(O)c(OC)c2)C1 (stereo unspecified)	5%
O=S(=O)(c1ccc(Cl)cc1)N1CCSC1c1ccco1 (stereo unspecified)	-9%
COCCNc1ncncc1-c1c(C)noc1C	1%
C=CCN1C(=O)C(O)(CC(=O)c2ccccc2)c2ccccc21 (stereo unspecified)	3%
COc1ccc(-c2nc(C#N)c(NCc3ccc(F)cc3)o2)cc1OC	32µM*

Remaining list, next part:
molecule	HSD17B inh
Cc1cc(NS(=O)(=O)c2ccccc2)no1	4%
CCc1ccc2[nH]c(=O)c(CN(CCN(CC)CC)C(=O)Nc3ccccc3OC)cc2c1	2%
COc1ccc(-n2c(Cc3cccn3C)nnc2SCC(=O)NCCc2ccccc2)cc1	1%
c1ccc(-c2noc(-c3ccco3)n2)nc1	?
N#CCCn1c(=O)cnc2cnc(Nc3ccccc3)nc21	?
CC(C)n1nnnc1SCC(=O)NCc1ccco1	1%
COCCNC(=O)c1csc2c1CCCC2	5%
CCOC(=O)Cn1ncc2c(=O)oc3ccccc3c21	-5%
CCOc1nc2c(c(=O)n(C)c(=O)n2C)n1Cc1ccccc1Cl	1%
O=S1(=O)C=C(SCCN2CCCCC2)c2ccccc21	-18%
COc1ccc(C2NCCC3(O)CCCCC23)c(OC)c1OC (stereo unspecified)	-3%
Cc1ccc(SCC(=O)NCCCN2CCOCC2)cc1	2%
OC(COc1ccc(OCc2ccccc2)cc1)CN1CCOCC1 (stereo unspecified)	6%
Cc1nc2nc(SCC(N)=O)[nH]c2cc1Br	5%
COc1cccc(Cn2c(=O)c(CCc3ccccc3)nc3cnc(N4CCN(C)CC4)nc32)c1	-4%

(list continues)
molecule	HSD17B inh
CSc1nc(C)c(C(=O)Nc2ccccc2)c(C)c1C#N	25µM*
Cc1nn(C)c(C)c1S(=O)(=O)N1CCCC(C(=O)NC2CCCCC2)C1 (stereo unspecified)	6%
COc1ccc(CC(=O)N2CCNC2=O)cc1	-21%
O=C(c1ccc(F)cc1)N1CCCCC(Sc2nnc3ccccn23)C1=O (stereo unspecified)	140%[activator]
CCn1c(SCc2nc3ccccc3c(=O)[nH]2)nc2ccccc2c1=O	?
Cc1cc(SCC#N)n2nc(C)c(-c3ccccc3)c2n1	-5%
CC(C)Cn1cnc2c(Sc3c([N+](=O)[O-])ncn3C)nc(N)nc21	4%[11.4 µM]
COC(=O)c1ccc(C2C(C(C)=O)=C(O)C(=O)N2CCO)cc1 (stereo unspecified)	-3%
Cc1ccc(N2CCN(C(=O)c3ccccc3F)CC2)c(C)c1	1%
CCOC(=O)Cc1csc(NC(=O)CC)n1	10%
CCc1c(C(=O)NCc2ccc3c(c2)OCO3)[nH]c(C)c1C(C)=O	-1%
CCOC(=O)c1[nH]c(C)c(C(=O)Nc2ccccc2C)c1C	2%
CCCC[C@@H]1C[C@H]1C(NC(=O)c1ccco1)c1ccc(Cl)cc1 (stereo partly specified)	3%
COc1ccc(N2CCN(CCNC(=O)c3ccc(NC(=O)C4CCCO4)cc3)CC2)cc1 (stereo unspecified)	3%
CCN(CC)C(=O)CC(c1ccc(F)cc1)c1ccco1 (stereo unspecified)	-12%

(continued)
SMILES | HSD17B inh
CN(Cc1ccccc1)C(=O)N[C@@H](Cc1ccccc1)C(=O)O | 7%
CCCc1nnc(NC(=O)CCC(=O)N2CCN(CCn3c(C)ccc3C)CC2)s1 | 4%
Cc1cc(C(=O)N2CCN(c3ccccn3)CC2)no1 | -2%
CCn1c(SCC(=O)Nc2ccccc2)nnc1-c1ccc(S(=O)(=O)N2CCOCC2)cc1 | 5%
CC1(C)CC(=O)C(C=NCCN2CCN(C(=O)c3ccccc3)CC2)=C(O)C1 | 3%
CCNc1ncc2nc(C)c(=O)n(CCc3ccccc3)c2n1 | 3.2µM*
COc1cccc(C(=O)NCC2CCN(c3ccc(S(=O)(=O)N4CCOCC4)cc3)CC2)c1 | ?
O=S(=O)(c1ccc(N2CCN(c3ccc(F)cc3)CC2)cc1)N1CCCC1 | 2%
C=CCSc1nc(C)c(CC(=O)OCCCC)c(=O)[nH]1 | ?
CCOc1ccc(C(C)=O)cc1CSc1nnc(-c2cccs2)n1CC1CCCO1 (stereo unspecified) | 8%
O=C(Cc1cccs1)NCc1ccc(F)cc1 | 12%
O=C1CC(C(=O)NCc2ccccc2)N=C(N2CCCCC2)N1 (stereo unspecified) | 5%

Later entries
SMILES | HSD17B inh
O=C(COC(=O)c1cncc(Br)c1)NCC1CCCO1 (stereo unspecified) | 9%
Cc1c(C)n(Cc2ccccc2)c2ncnc(N)c12 | ?
O=C(C1=COCCO1)N1CCN(S(=O)(=O)c2cccc(Cl)c2Cl)CC1 | -10%
COC(=O)CCC(=O)N1CCc2cc(S(=O)(=O)N3CCN(c4ccccc4Cl)CC3)ccc21 | 16%
CCOC(=O)Oc1c(OC)cc(C(=O)O[C@H]2C[C@H]3CN4CCc5c([nH]c6cc(OC)ccc56)[C@@H]4C[C@H]3[C@@H](C(=O)OC)[C@@H]2OC)cc1OC | -4%[25.6 µM]
CCOC(=O)c1cnc2ccccc2c1NCCO | -1%
COc1ccc(OC)c(C2c3c(oc4ccccc4c3=O)C(=O)N2CCCN(C)C)c1 (stereo unspecified) | -6%
Cc1ccc(-c2nc(CS(=O)(=O)CC(=O)N3CCc4ccccc4C3)c(C)o2)cc1 | -14%
O=C(O)Cn1c(SCCOc2ccccc2F)nc2ccccc21 | 5%
COc1ccc(S(=O)(=O)N2CCN(c3ccc4nnc(-c5ccc(F)cc5)n4n3)CC2)cc1 | 32µM*
COc1ccc(CCNC(=O)NC(C(F)(F)F)C(F)(F)F)cc1OC | 4%
COc1ccc(NC(=O)CN2CCN(c3ccccc3F)CC2)cc1 | -3%

(further entries)
SMILES | HSD17B inh
CN(C)c1ccc2c(O)cc(=O)n(C)c2c1 | ?
CCCCNC(=O)C1CCCN1C(=O)Nc1cccc(OC)c1 (stereo unspecified) | 7%
O=C(Nc1cccc(C(F)(F)F)c1)c1cc(S(=O)(=O)N2CCCCC2)ccc1N1CCOCC1 | ?
Cc1cc(NC(=O)CCC(=O)N(CC(=O)NC2CCCC2)Cc2ccccc2Cl)no1 | 10%
CC1CN(c2nc3c(c(=O)n(Cc4ccc(Cl)cc4)c(=O)n3C)n2C)CC(C)O1 (stereo unspecified) | 1%
COC(=O)C1=C(C)Nc2nnnn2C1c1cc(OC)ccc1OC (stereo unspecified) | 3%
CC(C)NC(=O)c1cc(C(=O)c2cc(Cl)ccc2O)coc1=N | -11%
Cc1sc(NC(=O)CSc2nc(N)n(CC(=O)c3ccccc3)n2)c(C#N)c1C | -7%
Cn1nc(CC(=O)N2CCN(c3ccccc3)CC2)c2ccccc2c1=O | 3%
Cc1nc2ccc(NC(=O)C3CCN(S(=O)(=O)c4cccs4)CC3)cc2s1 | 10%
CCCCCC(=O)N1CCN(CCN=CC2=C(O)CC(c3ccc(OC)c(OC)c3)CC2=O)CC1 (stereo unspecified) | 7%
CCn1c(COc2ccccc2C)nnc1SCC(=O)N1CCCCC1 | 8%
Cc1ccc(C(=O)NCCCNCCCN(C)C)cn1 | 4%
CCOC(=O)C1CCN(S(=O)(=O)c2ccc(-n3cnnn3)c(C)c2)CC1 | 18%

Screening results (PubChem BioAssay)
